From PubChem
NPYLR7 ag: activates Aedes aegypti NPYLR7 receptor | HEK293T NPYLR7/Galpha15, GCaMP6s calcium fluorescence | activation, % at 10 µM | 270,000 tested, 0.15% active; in the data active means activation above about 40%;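 further: 0% = vehicle and 100% = reference agonist at the receptor; some compounds past the cut are filed as inactive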
NPYLR7 ag max-min: second read-out of NPYLR7 ag, no call of its own (marks repeat the call); activation, %; measured here: Max-Min RFU normalised activation; some inactives read as strong as hits;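 span of the calcium signal over five minutes; 0% = vehicle and 100% = native peptide agonist; compound fluorescence can raise it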
* = called active by the depositor; & = joins results of further samples. The list is partial. The share of hits here may be higher or lower than overall.

entry | mol | NPYLR7 ag | NPYLR7 ag max-min
1 | Cc1nn(CC(C)C)c2sc(C(=O)NC3CC(C)(C)NC(C)(C)C3)cc12 | -2 | 4
2 | COCC1CCCCN1Cc1nc(N2CCN(C(C)=O)CC2)c2cccc(C)c2n1 (configuration not stated) | 22 | 15
3 | CCOC(=O)N1CCN(CC(=O)N2N=C(c3cccc(OC)c3)CC2c2ccc(C)cc2)CC1 (configuration not stated) | -1 | 5
4 | O=C(Cc1ccccc1)N1CCOCC2(CN(Cc3ccncc3)CCO2)C1 (configuration not stated) | 1 | 3
5 | COc1ccc(-c2nnc3ccc(OCCNS(=O)(=O)c4cccs4)nn23)cc1 | -2 | -4
6 | CC(C)c1ccc(Oc2cnn(-c3ccccc3)c(=O)c2Nc2cccc(C(=O)NCCN3CCOCC3)c2)cc1 | 13 | 17
7 | CCN(CC)C1=C(c2c(COC)[nH]n(-c3cccc(Cl)c3)c2=O)C(=O)N(C2CCCCC2)C1=O | 27 | 21
8 | Cc1ccc(S(=O)(=O)NCCn2nc(-c3ccc(F)cc3)ccc2=O)s1 | -3 | -4
9 | COc1ccc(OCC(O)CN2CCC(CN3C(=O)c4cccc5cccc(c45)C3=O)CC2)cc1 (configuration not stated) | 2 | 8
10 | CC#CC1C2(C)C3(Br)C(CC)C1(C)S(=O)(=O)C23C (configuration not stated) | 5 | 6
11 | Cc1cc(C)n(C(C)C(=O)NCCS(=O)(=O)N(C)C)n1 (configuration not stated) | -7 | -7
12 | CC(=O)c1cccc(NC(=O)CC2S/C(=N/N=C\c3ccccc3)NC2=O)c1 (configuration not stated) | 3 | 2
13 | CC(=O)Nc1ccc(OC(C)(C)C)cc1 | -29 | -35
14 | Cc1ccc(-n2cnnc2SCC(=O)N(C)C2CCC(C)CC2)cc1C (configuration not stated) | 5 | 3
15 | COc1ccc(-n2nc(C(=O)NCC3CCCO3)c(=O)n(Cc3cccc(C(F)(F)F)c3)c2=O)cc1OC (configuration not stated) | 9 | 21

Further records.
entry | mol | NPYLR7 ag | NPYLR7 ag max-min
16 | CCC1CCCN(Cc2nc(N)c3ccccc3n2)C1 (configuration not stated) | 4 | 2
17 | Nc1ccc(CCNC(=O)c2ccc(-c3cc(-c4ccc(Cl)cc4)[nH]n3)cc2)cc1 | -6 | -16
18 | CCc1nc(CN(Cc2ccc(F)cc2)CC2CCCO2)c(C)[nH]1 (configuration not stated) | 1 | 0
19 | CC(C)c1cc(C(C)C)n(C2CCN(C(=O)Cc3cccs3)CC2)n1 | 2 | -7
20 | O=C(COCc1ccccc1)N1CCC(n2c(=O)[nH]c3ccccc32)CC1 | -7 | -13
21 | COc1ccc2oc(C(=O)n3ncc(C#N)c3N)c(C)c2c1 | -1 | -2
22 | Cc1ccc(CN(CC(=O)N(C)Cc2ccsc2)C2CC2)cc1 | 1 | 1
23 | Cc1cc(N2CCN(C(=O)COCc3ccccc3)CC2)nc(-c2cccc(F)c2)n1 | 17 | 22
24 | CCCCCCc1ccc(C(=O)N(CCCOCC)CC(=O)N(CCc2ccc(OC)c(OC)c2)Cc2cccs2)cc1 | 19 | 24
25 | Cn1c(=O)c2c(ncn2CCCC(=O)Nc2nnc(C3CC3)s2)n(C)c1=O | 5 | 10
26 | COC(=O)c1ccc(N2C(=O)/C(=C/c3ccc(-c4ccc([N+](=O)[O-])cc4)o3)C=C2c2ccccc2)cc1 | -1 | 7
27 | COc1cccc(-n2nnc3c(SCc4cccnc4)ncnc32)c1 | 21 | 25
28 | O=C1CSC(c2ccccc2)N1c1ccc(F)cc1 (configuration not stated) | -17 | -24
29 | O=C(Nc1ccc(Br)cc1Cl)N1CC(=O)N2CCc3c(F)cccc3C2C1 (configuration not stated) | -2 | -4
30 | COCCN1C(=O)c2ccccc2NC1/C=C/c1ccco1 (configuration not stated) | 2 | 0

Additional structures follow:
entry | mol | NPYLR7 ag | NPYLR7 ag max-min
31 | COc1ccc(CN2CCN(Cc3nc4cc(Cl)ccc4c(=O)[nH]3)CC2)cc1F | -5 | -7
32 | COCCCNCc1ccccc1C | 7 | 1
33 | O=C1C2C3C=CC(O3)C2C(=O)N1c1cc(C(F)(F)F)ccc1Cl (configuration not stated) | -1 | 7
34 | CCCC1=C(C(=O)OCC)C(c2cccc(OC)c2OC)NC(=O)N1 (configuration not stated) | 13 | 16
35 | Nc1nc(NCCc2ccccc2)nc(N2CCCC2)c1[N+](=O)[O-] | -3 | -3
36 | COCCN(CCC(=O)Nc1ccc(F)cc1)c1nc(-c2cccs2)nc2ccccc12 | -22 | -7
37 | O=C(Nc1nnc(SCc2ccc(F)cc2)s1)c1cccc([N+](=O)[O-])c1 | -7 | -10
38 | CCn1cc(CNC(=O)CCc2nnc(CCC3CCCCC3)o2)cn1 | 6 | 9
39 | CCOC(=O)C1(Cc2cccc(OC)c2)CCCN(Cc2ccc(COC)o2)C1 (configuration not stated) | -10 | -14
40 | Cc1ccc2[nH]c(CCNC(=O)c3cn4c(n3)CNCC4)nc2c1C | -4 | -8
41 | CC(=O)Nc1ccsc1C(=O)N1CCC(n2nc(C)cc2C)C1 (configuration not stated) | 2 | 2
42 | Cc1cc(C)nc(SCc2cc(=O)c(OC(=O)COc3ccccc3)co2)n1 | -11 | -5
43 | Cc1ccc(-c2cnn3c(NCCOCCO)cc(C(C)(C)C)nc23)cc1 | 5 | 7
44 | CCc1oc2ccccc2c1CN(C)C(=O)c1ccc(C#N)cc1 | -5 | -7
45 | CC(NC(=O)CN1CCCC(CO)C1)c1cccs1 (configuration not stated) | 7 | 5

Values by screen from the list:
NPYLR7 ag max-min, entries 32 to 39 → 1, 7, 16, -3, -7, -10, 9, -14
NPYLR7 ag, entries 32 to 39 → 7, -1, 13, -3, -22, -7, 6, -10

Going on with the list.
entry | mol | NPYLR7 ag | NPYLR7 ag max-min
46 | O=C(Nc1ccc(Cl)c(C(F)(F)F)c1)NC1CCOC1=O (configuration not stated) | -7 | -8
47 | CCn1nc(C(=O)O)c2c1CCC(NCCc1nc(C)c3c(n1)CCCC3)C2 (configuration not stated) | 2 | 0
48 | O=C(NCC1CCCO1)c1cn(CC2CCCO2)cc2c(=O)n(-c3ccccc3)nc1-2 (configuration not stated) | 17 | 11
49 | COc1cccc(OCc2ccccc2)c1C(=O)NCCC1=CCCCC1 | -8 | -21
50 | COc1cc(S(=O)(=O)Nc2ccccn2)ccc1Cl | 0 | -1
51 | C=CCn1c(COc2ccccc2)n[nH]c1=S | 3 | -2
52 | CC(NC(=O)CCc1nc(-c2ccc(Cl)cc2)no1)c1ccco1 (configuration not stated) | 1 | 2
53 | NS(=O)(=O)c1ccc(N/N=C2\CCOc3ccccc32)nc1 | 9 | 7
54 | CCn1ncc(-c2ccc(OC)cc2C)c1C(=O)OC | 6 | 1
55 | Cc1ccc(C)c(-c2csc(NC(=O)Cn3cnc4sccc4c3=O)n2)c1 | 9 | 8
56 | O=C(COc1cccc(F)c1)N1CCC(c2ccc(O)cc2)CC1 | -5 | -7
57 | O=C(NCc1nccs1)c1nn(Cc2ccccc2)c2c1CN(C(=O)c1cccnc1)CC2 | 16 | 9
58 | OCCOCCN1CCCC1c1nc2ccc(F)cc2[nH]1 (configuration not stated) | 2 | -6
59 | O=C(CCN1CCCC1Cn1cccn1)Nc1nc2ccccc2s1 (configuration not stated) | 14 | 4
60 | CSc1ccc(Cn2c(C)c(C(=O)NCc3cccnc3)sc2=O)cc1 | 13 | 4

Continued:
entry | mol | NPYLR7 ag | NPYLR7 ag max-min
61 | Cc1cccc(CSc2ncc(CO)n2CC(=O)NCc2ccc(F)cc2)c1 | 7 | 3
62 | COc1ccc(-c2nn(-c3ccccc3C)cc2CN(C)Cc2nonc2C)cc1F | -6 | -6
63 | O=C(Nc1ccc(F)c(F)c1F)c1ccc(=O)n(Cc2ccc(F)cc2)c1 | 9 | 2
64 | COc1cccc(CC2=NOC(C(=O)NCc3cccs3)C2)c1 (configuration not stated) | 4 | 1
65 | O=C(c1ccccc1Cl)N1CCN(c2nc(-c3ccccc3)nc3cc(Cl)ccc23)CC1 | -29 | -18
66 | CCOC(=O)Cc1ccc(-n2c(=O)[nH]c3nc(-c4cc(OC)c(OC)c(OC)c4)cnc32)cc1 | -4 | -8
67 | Cc1cccc(C)c1C(O)c1ncc(-c2ccccc2C(F)(F)F)[nH]1 (configuration not stated) | 0 | -3
68 | Cc1nc(CCNC(=O)c2cnn(-c3ccccn3)c2C)sc1C | -2 | -1
69 | COC(=O)CC(NC(=O)COc1ccccc1)c1ccc(OC)c(OC)c1 (configuration not stated) | 0 | 6
70 | CCCCN(C)S(=O)(=O)c1cc(-c2nnc3c4ccccc4c(C)nn23)ccc1C | -18 | -23
71 | COCc1csc(NC(=O)N2CCC(Cc3ccccc3)C2)n1 (configuration not stated) | 6&2 | 5&2
72 | Cc1ccnc(-c2cccc(Cl)c2Cl)n1 | 3 | 16
73 | CC(C)(C)c1ccc(-c2ccnc3nc(N4CCN(C(=O)c5ccc(Cl)cc5)CC4)nn23)cc1 | 5 | 2
74 | Cc1nc(CCNC(=O)N2CCN(C(C)C)CC2)cs1 | 7 | 6
75 | COC(=O)C(CO)NCC(=O)NC1CCCCCCC1 (configuration not stated) | -11 | -12

One compound at a time, from the list above. Values in the order: NPYLR7 ag | NPYLR7 ag max-min
Entry for CC(C)(C)c1ccc(-c2ccnc3nc(N4CCN(C(=O)c5ccc(Cl)cc5)CC4)nn23)cc1 : 5 | 2
Entry for COc1ccc(-c2nn(-c3ccccc3C)cc2CN(C)Cc2nonc2C)cc1F : -6 | -6

(more compounds)
entry | mol | NPYLR7 ag | NPYLR7 ag max-min
76 | CCOC(=O)C1=C(Cn2nnc(-c3ccc(CC)cc3)n2)NC(=O)NC1 | 8 | 7
77 | CN(C)CCN(Cc1c(-c2ccccc2)noc1N1CCc2ccccc2C1)C(=O)c1ccc2c(c1)OCO2 | 9 | 10
78 | O=C(CC1C=CCC1)Nc1cccc(S(=O)(=O)N2CCOCC2)c1 (configuration not stated) | -8 | -10
79 | CC(Cc1cccs1)NC(=O)c1ccc(CSc2ncccn2)o1 (configuration not stated) | 7 | -5
80 | Cc1cc(C(C(=O)O)N2CCCCCCC2)ccc1F (configuration not stated) | 0 | -7
81 | O=C(c1ccc(Cl)c(F)c1)N1CCN(Cc2ccc(-c3noc(-c4ccccc4)n3)cc2)CC1 | 12 | 9
82 | c1ccc2c(c1)CCCc1cc(NCCN3CCOCC3)nnc1-2 | -5 | -9
83 | O=c1[nH]c(CSc2nnc(-c3ccco3)o2)nc2scc(-c3cccs3)c12 | -3 | -5
84 | Brc1ccccc1C=NN1CCN(Cc2cccc3ccccc23)CC1 | -6 | -8
85 | COc1cccc(CC2(C(=O)O)CCN(C(=O)C(C)C)CC2)c1 | 18 | 22
86 | O=C(CCc1cc2c(n1-c1ccc3c(c1)OCO3)-c1ccccc1CC2)NCc1cc(F)ccc1F | 1 | -1
87 | CN(CCC(C)(C)O)C(=O)c1ccc(N)nc1 | -1 | 4
88 | CCCn1cc(C(=O)N(Cc2ccccc2F)C(C)CC)c(C)n1 (configuration not stated) | -4 | -10
89 | CCC1(C)CCCN(C(=O)c2ccc(OC)c(S(=O)(=O)NC)c2)C1 (configuration not stated) | 8 | 6
90 | O=c1ccn(CCc2n[nH]c(Cc3ccccc3)n2)c(=O)[nH]1 | 15 | 5

(listing goes on)
entry | mol | NPYLR7 ag | NPYLR7 ag max-min
91 | CN(CC(=O)NCc1ccco1)C(=O)c1cc(-c2ccccc2Cl)nc2ccccc12 | -1 | 2
92 | CNC(=O)CSc1nc(-c2ccc(C)cc2)nc2c1c(=O)n(C)c(=O)n2C | -4 | -8
93 | COc1ccc(-n2c(SCC(=O)NCCc3ccccc3)nc3c(c2=O)SCC3)cc1OC | -5 | -6
94 | O=[N+]([O-])/C(C(Cl)=C(Cl)Cl)=C(\N1CCCCC1)n1nnc2ccccc21 | -14 | -16
95 | O=C(c1cccnc1Cl)N1CCOC(COCc2c(Cl)cccc2Cl)C1 (configuration not stated) | -3 | -3
96 | N#CC(=Cc1cc(Br)cc(Br)c1O)c1ccccn1 | 2 | 1
97 | Cc1cccc(NC(=O)N2CCSC2c2cccc(Cl)c2)c1 (configuration not stated) | -3 | -1
98 | COc1ccc(N(CC(=O)NCc2cccnc2)S(=O)(=O)c2ccccc2[N+](=O)[O-])c(OC)c1 | -8 | -7
99 | O=C(NCc1ccc(CN2CCCCC2)cc1)c1ccncc1 | 6 | 8
100 | Cc1cccc(-n2ccnc2CN2CCCC(N3CCc4ccccc4C3)C2)c1 (configuration not stated) | 0 | -3
101 | O=C(CSc1nc2c(c(=O)n1-c1cccc(C(F)(F)F)c1)SCC2)Nc1nccs1 | -3 | -8
102 | COc1ccccc1NC(=O)N(CCN1CCOCC1)CC(=O)N(Cc1ccc(F)cc1)Cc1ccc(C)o1 | 0 | 5
103 | Cc1cc(=O)n2c(-c3ccc(NS(=O)(=O)c4cccs4)cc3)csc2n1 | -2 | -3
104 | O=C(N=Nc1c(O)[nH]c2ccc(Br)cc12)c1cccs1 | -2 | -4
105 | O=[N+]([O-])c1cc(CN2CCN(CCCOC(c3ccc(Cl)cc3)c3ccc(Cl)cc3)CC2)cs1 | 4 | -1

Individual results from the entries so far.
O=C(CSc1nc2c(c(=O)n1-c1cccc(C(F)(F)F)c1)SCC2)Nc1nccs1 – NPYLR7 ag max-min = -8
O=[N+]([O-])c1cc(CN2CCN(CCCOC(c3ccc(Cl)cc3)c3ccc(Cl)cc3)CC2)cs1 – NPYLR7 ag max-min = -1

Two records drawn at random from the list so far:
entry | mol | NPYLR7 ag | NPYLR7 ag max-min
104 | O=C(N=Nc1c(O)[nH]c2ccc(Br)cc12)c1cccs1 | -2 | -4
103 | Cc1cc(=O)n2c(-c3ccc(NS(=O)(=O)c4cccs4)cc3)csc2n1 | -2 | -3

(further entries)
entry | mol | NPYLR7 ag | NPYLR7 ag max-min
106 | CS(=O)c1ccccc1NC(=O)NC(CO)Cc1ccccc1 (configuration not stated) | 4 | 0
107 | CC1(C(=O)NNC(=O)C2(C)CC2(Br)Br)CC1Br (configuration not stated) | 0 | -1
108 | O=C(c1cn(CCC2CCCCC2)nn1)N1CCCN(C(=O)c2ccco2)CC1 | 12 | 6
109 | CCN(CC)c1c(C(C)(C)C)c(=O)c1=O | -2 | -4
110 | O=C1Nc2c(Cl)cc(Cl)cc2C1=Nn1cnc2sc3c(c2c1=O)CCCC3 | 3 | 0
